miR-21 FLuc: qHTS Assay for Modulators of miRNAs and/orActivators of miR-21. HeLa miR-21 FLuc reporter, luciferase, 48 h. Potency, µM (top dose mostly 38.3 µM), for inactives: at the highest dose reporter change, positive = more light. 340,000 tested, under 10 active. AID 2288, 2010; active = well fitted rising curve with a large enough effect; inconclusive = small, poorly fitted or top-dose-only effect; inactive = no such curve, though single readings can be large or run the other way;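 also: % of control where 0% means no effect; miR-21 action dims this reporter so a rising signal means less miR-21 action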
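HeLa cells endogenously expressing miR-21, stably carrying CMV-driven firefly luciferase with a downstream miR-21 binding site, 2000 cells/well. Titrations up to approximately 40 uM, 48 hours; luciferase luminescence read.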
Numbers without * were called inactive; ? = inconclusive. Not all compounds are listed; the hit share may differ from the screen's.

SMILES | miR-21 FLuc
Cc1ccccc1NC(=O)C1CCN(S(=O)(=O)c2c(C)noc2/C=C/c2ccco2)CC1 | -0.6%
Cc1ccc(NC(=O)CN2C(=O)COc3ccc(S(=O)(=O)N4CCOCC4)cc32)c(Cl)c1 | -4.3%
CCc1nnc2c(NCc3ccccc3)nc3ccccc3n12 | -0.8%
CCOc1ccc(OCC)c(NC(=O)c2cnc3c(-c4ccccc4)c(C)nn3c2C)c1 | -1.2%
COc1ccccc1C(=O)CC1(O)C(=O)N(CC(N)=O)c2ccccc21 (stereo not given) | -5.1%
CCc1ccc(-n2nc(C)c3c(C(=O)Nc4cc(OC)cc(OC)c4)cc(C)nc32)cc1 | 7.0%
CC(C)c1cc(C(=O)NCc2ccccc2)no1 | -35.8%
CCN1c2cc(C)ccc2-n2cccc2C12CCN(C(=O)Nc1cc(OC)c(OC)c(OC)c1)CC2 | 19.9%
Cc1ccc(C(=O)Nc2cccc3cccnc23)cc1Cl | -31.3%
COc1ccc(CC(=O)Nc2sc3c(c2C(=O)Nc2c(C)cccc2C)CCCCC3)cc1 | -0.4%
COc1ccc(-n2c(SCC(=O)NCc3ccc(C)cc3)nc3n[nH]c(C)c3c2=N)cc1 | 5.1%
COc1ccc(CNC(=O)C2CCN(S(=O)(=O)N3CCC(C)CC3)CC2)c(OC)c1 | 5.6%
CCOc1ccc(NC(=O)c2ccc3c(=O)n4nc(Nc5ccccc5C)sc4nc3c2)cc1 | 0.3%
COc1ccccc1NC(=O)CSC1=Nc2ccccc2N=C(c2ccc(F)cc2)C1 | -1.4%
Cc1ccc2nc(N3CCN(c4cccc(C(F)(F)F)c4)CC3)c3nnnn3c2c1 | -2.9%
CCCCOC(=O)c1cccc(NC(=O)c2cc3ccccc3o2)c1 | 9.5%
O=c1c(S(=O)(=O)c2cccc(Cl)c2)cn(Cc2ccccc2)c2cc(N3CCCCC3)c(F)cc12 | 9.8%
COc1ccc(C2c3c(n(C)c4ccccc34)C(=O)N2CC(=O)Nc2ccccc2Cl)cc1 (stereo not given) | -0.5%
Cc1nc(Oc2ccccc2C)c2oc3ccccc3c2n1 | 24.0%
Cc1ccc(CNC(=O)c2cnc3c(-c4ccccc4)c(C)nn3c2C)o1 | -5.9%
Cc1ccc(NC(=O)CSc2nc(-c3cccs3)nc3cc(=O)[nH]n23)cc1 | -20.1%
CCn1ccc2cc(S(=O)(=O)N3CCCN(C(=O)Nc4ccccc4OC)CC3)ccc21 | 0.9%
CCCCCOC(=O)CSc1nc2sc3c(c2c(=O)n1Cc1ccccc1)CC(C)(CC)OC3 (stereo not given) | -2.6%
COc1ccc(-c2noc(C3CC(=O)N(c4ccc(C)c(F)c4)C3)n2)c(OC)c1 (stereo not given) | -6.0%
COCCNC(=O)c1ccc(-n2c(-c3ccccc3)cc3c2CCC(C)C3)cc1 (stereo not given) | 2.6%
Continuation.
SMILES | miR-21 FLuc
CCn1ccc2cc(S(=O)(=O)N3CCCN(C(=O)NCC(C)C)CC3)ccc21 | 3.6%
O=C(C1CCC(Cn2c(=O)c3sccc3n(Cc3ccccc3F)c2=O)CC1)N1CCOCC1 (stereo not given) | 0.3%
Cc1ccccc1C(=O)Nc1ccccc1C(=O)OCc1cc(=O)n2nc(C3CC3)sc2n1 | -14.9%
CC(C)c1ccc(S(=O)(=O)N2CCN(CC(=O)Nc3ccccc3C(F)(F)F)CC2)cc1 | 1.7%
CCn1c(=O)c2cc(C(=O)Nc3cccc(C(F)(F)F)c3)sc2c2ccccc21 | 0.3%
CCn1cc2c(n1)-c1c(oc(C(=O)Nc3cccc(C(F)(F)F)c3)c1C)CC2 | -2.4%
O=C(Cn1cc(SCc2ccc(F)cc2)c2ccccc21)N1CCCCCC1 | -0.5%
Cc1cc(Cl)ccc1NC(=O)C1CCN(c2nnc(-n3c(C)ccc3C)s2)CC1 | 7.8%
CCOc1ccccc1C(=O)N1CCN(CCc2ccccn2)CC1 | -2.1%
O=C(NC1CC(=O)N(c2ccc(F)cc2)C1)C(c1ccccc1)c1ccccc1 (stereo not given) | 20.9%
O=C(CCc1nnc2n(Cc3ccccc3Cl)c(=O)c3ccccc3n12)Nc1ccc(F)c(F)c1 | 0.5%
O=S(=O)(Nc1cccc(C(F)(F)F)c1)c1ccc(-c2cnc(C3CC3)o2)cc1 | 24.0%
COc1ccc(NC(=O)Cn2c(=O)n(Cc3ccc(C(=O)NCc4ccccc4Cl)cc3)c(=O)c3ccccc32)cc1OC | -8.1%
Cc1ccc(C)c(Cn2c(=O)n(-c3ccc(Cl)cc3)c(=O)c3c4c(sc32)CCC4)c1 | -1.1%
Cc1cc(OCC(=O)Nc2cc(-c3nc4ncccc4o3)ccc2C)ccc1Cl | -14.5%
CC(C)C(=O)NCC1(N(C)C)CCCCC1 | -2.6%
Cc1ccccc1NC(=O)Cn1c(=O)n(CCc2ccccc2)c(=O)c2ccccc21 | -6.2%
CC(=O)C1=C(c2ccc(Cl)c(Cl)c2)N(C(C)=O)n2c(nnc2-c2ccccc2)S1 | 0.3%
O=S(=O)(c1ccccc1)c1nc(-c2ccc(Cl)cc2Cl)oc1N1CCCCCC1 | 0.3%
CCOc1ccc(-n2c(SCC(=O)N3CCCCCC3)nc3c([nH]c4ccccc43)c2=O)cc1 | -8.7%
CCOc1ccccc1NC(=O)Cn1nnc(C(=O)Nc2ccc(C)c(C)c2)c1N | -4.7%
CCc1ccc(OCC(=O)Nc2ccc3c(c2)c2ccccc2n3CC)c(Br)c1 | 0.7%
Cc1ccc(S(=O)(=O)C(CNS(=O)(=O)c2ccc(F)c(C(F)(F)F)c2)c2ccco2)cc1 (stereo not given) | 11.4%
Cc1c(C(=O)N2CCCC2)oc2c1-c1nn(CC(=O)NCc3cccc(F)c3)cc1CC2 | 9.1%
CCc1ccc(S(=O)(=O)c2cn(Cc3ccc(OC)cc3)c3cc(OC)c(OC)cc3c2=O)cc1 | -3.4%
(more compounds)
SMILES | miR-21 FLuc
O=C(CS(=O)(=O)c1nc(-c2ccc(Cl)cc2)cn1-c1ccccc1)Nc1cccc(Cl)c1 | 9.1%
COc1ccc(C)cc1NC(=O)CCn1nc(C)cc1C | -3.6%
COc1ccc(NC(=O)c2cc3c(=O)n(Cc4cccnc4)ccc3nc2C)cc1OC | -4.7%
O=C(Cn1c(-c2cccs2)cc2cc(Cl)ccc21)N1CCN(c2ccccc2F)CC1 | 0.8%
CCOC(=O)c1ccc(N2CCN(c3ccccc3OC)CC2)c(NC(=O)Nc2ccc(CC)cc2)c1 | -5.9%
CSc1oc(-c2cccs2)nc1S(=O)(=O)c1ccc(Br)cc1 | 3.8%
Cc1ccc(-n2c(=O)c3c(C)c(C(=O)N(C)C)sc3n(CC(=O)C(C)(C)C)c2=O)cc1C | -8.3%
Cc1ccc2c(=O)cc(C(=O)Nc3ccc(S(=O)(=O)Nc4nc(C)cc(C)n4)cc3)oc2c1 | -26.8%
Cc1ccc2c(c1)-c1c(c(C(=O)N3CCN(c4cc(C)ccc4C)CC3)nn1C)CS2 | -3.0%
COc1cccc(N2CCN(C(=O)C3CCN(S(=O)(=O)c4cn(C)cn4)CC3)CC2)c1 | -0.6%
COc1ccc(NC(=O)C2CCN(S(=O)(=O)c3cn(C)cn3)CC2)cc1Cl | 4.3%
COc1ccc(-c2cc(C(F)(F)F)n3nc(C(=O)Nc4cc(C(F)(F)F)ccc4Cl)cc3n2)cc1OC | -11.0%
CCN(C(=O)CCS(=O)(=O)c1ccc2c(c1)CCN2C(C)=O)c1cccc(C(F)(F)F)c1 | -4.1%
Cc1cccc(N(C)C(=O)c2cc3c(=O)oc4ccc(C)cc4c3s2)c1 | -1.3%
CCOC(=O)c1cc(-c2ccccc2)n(-c2cccc(C(=O)Nc3ccc(F)c(F)c3)c2)c1C | ?
Cc1ccc(-n2nc(C(=O)N3CCN(c4cc(Cl)ccc4C)CC3)c3c4ccccc4n(C)c3c2=O)cc1 | 3.7%
COc1cc(OC)cc(C(=O)N2CCC(c3ccncc3)CC2)c1 | 3.3%
O=C(O)CSc1nnc(-c2ccc(Cl)cc2)n1-c1ccccc1 | 1.8%
CCOc1ccc(N2CC(NC(=O)CCc3ccccc3)CC2=O)cc1 (stereo not given) | -1.6%
Cc1ccc(N2CC(NC(=O)Cc3cccs3)CC2=O)cc1C (stereo not given) | -4.8%
COc1cc(C(=O)Nc2ccc3nc(SCc4ccccc4)sc3c2)cc(OC)c1OC | 20.0%
O=C(NCCc1nc2ccccc2n1CCOc1ccc(Cl)cc1)C1CCCCC1 | ?
O=C(NCc1ccc(F)cc1)C(=O)NCC(c1ccco1)S(=O)(=O)c1cccs1 (stereo not given) | 14.7%
CC(=O)N1CCCc2cc(S(=O)(=O)N(C)CC(=O)Nc3ccc(C(C)C)cc3)ccc21 | 15.2%
CCC(C)NC(=O)CCCn1c(=O)c2cccn2c2ccccc21 (stereo not given) | -17.7%
Following part
SMILES | miR-21 FLuc
CCN(C(=O)C1CCCN(c2ncnc3c2nc2n3CCCCC2)C1)c1cccc(C)c1 (stereo not given) | 29.2%
Cc1ccc(CCNC(=O)c2cc3c(=O)n(C)c4ccccc4c3n2C)cc1 | 6.3%
COc1cc(Cl)c(C)cc1NC(=O)CCc1nc2cccnc2n1Cc1cccs1 | -1.3%
CC(C)Oc1ccc(CNC(=O)CN2C(=O)c3cccnc3Oc3ccc(Cl)cc32)cc1 | 23.2%
COc1ccc(-c2[nH]c(-c3ccc(F)cc3)nc2SCC(=O)Nc2ccc(OC)c(OC)c2)cc1 | 24.5%
O=C(Cn1cc(S(=O)(=O)Cc2cccc(Cl)c2)c2ccccc21)NCc1ccccc1Cl | 2.5%
Cc1ccccc1OCCSc1nc2ccc(NC(=O)c3ccccc3)cc2s1 | ?
Cc1ccc(Nc2c(-c3ccccn3)nc3ccc(Br)cn23)cc1 | -1.4%
COc1ccc2cc(CNc3ccccc3)c(=O)n(CC(=O)Nc3ccc(C)cc3C)c2c1 | -4.3%
Cc1cc2ccccc2n1CCNC(=O)c1cc(C(F)(F)F)cc(C(F)(F)F)c1 | -0.7%
COc1cccc(CNC(=O)CCc2c(C)nn(-c3ccc(N4CCCC4)nn3)c2C)c1 | -1.9%
CCOC(=O)c1cc(OC(=O)c2cccc(Cl)c2)n(-c2ccccc2)n1 | 5.4%
COc1ccc(Br)cc1CNC(=O)CSc1n[nH]c(-c2ccccc2)n1 | 19.6%
COC(=O)c1ccccc1NC(=O)C1(c2cccs2)CCOCC1 | -10.2%
COc1ccc(NC(=O)CCCn2nc(C)c3sc4ccccc4c3c2=O)cc1 | -42.2%
CCOCCCn1c(=N)c(C(=O)NC2CCCCC2)cc2c(=O)n3ccccc3nc21 | -0.9%
CCOc1ccc(-c2nnc(SCC(=O)NCc3ccc(Cl)cc3)o2)cc1 | -17.5%
CC1CCN(c2oc(-c3cccs3)nc2S(=O)(=O)c2ccccc2)CC1 | -11.8%
Cc1ccc(NC(=O)C2CCCN(S(=O)(=O)c3c(C)nn(C)c3C)C2)c(C)c1 (stereo not given) | -4.2%
Cc1cccc(N2CCN(C(c3ccccc3)c3nnc(-c4ccccc4Cl)o3)CC2)c1C (stereo not given) | -2.3%
O=C(NCc1ccccc1)c1ccc(NC(=O)N2CC3CCCN3c3ccccc32)cc1 (stereo not given) | -1.4%
CCOC(=O)C1CCN(C(=O)C2CCN(C3=NS(=O)(=O)C(c4ccc(C)cc4)=C3CC)CC2)CC1 | -2.7%
COc1ccc(OCc2ccc(-c3nc(C#N)c(N4CCN(c5cccc(Cl)c5)CC4)o3)o2)cc1 | -1.3%
COc1cccc(C(=O)NCc2ccc3c(c2)CCN3C(=O)c2ccncc2)c1 | ?
COc1cccc(CNC(=O)Cn2ncc3c4ccccc4n(C)c3c2=O)c1 | -0.4%
Going on with the list.
SMILES | miR-21 FLuc
CCn1c(CNC(=O)c2ccc(OC)cc2)nnc1SCC(=O)Nc1cccc(C)c1C | -8.1%
CC(=O)c1ccc(N2CCN(C(=O)CCCCn3c(=O)[nH]c4ccsc4c3=O)CC2)cc1 | 29.3%
CCc1ccc2ncc(C(=O)c3ccc(C)c(C)c3)c(N3CCC(C(N)=O)CC3)c2c1 | -8.3%
CCOc1ccc(-c2nonc2NC(=O)c2ccccc2C)cc1 | -8.7%
COc1ccc(NC(=O)c2oc3ccccc3c2NC(=O)c2cccc(F)c2)c(OC)c1 | -2.3%
CCc1ccc(NC(=O)c2ccc(F)c(S(=O)(=O)N3CCN(c4ccc(OC)cc4)CC3)c2)cc1 | 9.9%

Arranged by SMILES length (lowest first): some entries from above
SMILES | miR-21 FLuc
CCOc1ccc(-c2nonc2NC(=O)c2ccccc2C)cc1 | -8.7%
COc1cccc(CNC(=O)Cn2ncc3c4ccccc4n(C)c3c2=O)c1 | -0.4%
CC1CCN(c2oc(-c3cccs3)nc2S(=O)(=O)c2ccccc2)CC1 | -11.8%
COc1cccc(C(=O)NCc2ccc3c(c2)CCN3C(=O)c2ccncc2)c1 | ?
O=C(NCc1ccccc1)c1ccc(NC(=O)N2CC3CCCN3c3ccccc32)cc1 (stereo not given) | -1.4%
COc1ccc(NC(=O)c2oc3ccccc3c2NC(=O)c2cccc(F)c2)c(OC)c1 | -2.3%
Cc1cccc(N2CCN(C(c3ccccc3)c3nnc(-c4ccccc4Cl)o3)CC2)c1C (stereo not given) | -2.3%
CCc1ccc2ncc(C(=O)c3ccc(C)c(C)c3)c(N3CCC(C(N)=O)CC3)c2c1 | -8.3%
CC(=O)c1ccc(N2CCN(C(=O)CCCCn3c(=O)[nH]c4ccsc4c3=O)CC2)cc1 | 29.3%
COc1ccc(OCc2ccc(-c3nc(C#N)c(N4CCN(c5cccc(Cl)c5)CC4)o3)o2)cc1 | -1.3%
CCc1ccc(NC(=O)c2ccc(F)c(S(=O)(=O)N3CCN(c4ccc(OC)cc4)CC3)c2)cc1 | 9.9%
CCOC(=O)C1CCN(C(=O)C2CCN(C3=NS(=O)(=O)C(c4ccc(C)cc4)=C3CC)CC2)CC1 | -2.7%

Screening results: PubChem, National Center for Advancing Translational Sciences (NCATS)
